# VDR inhibitor – inhibitors of human vitamin D receptor | P11473 | Potency, µM, for the others: max response, negative = inhibition, actives largely listed as inhibitors | actives 0.93% (n = 400,000) | VDR-SRC2-3 peptide fluorescence polarization, 2 h; active = well fitted inhibition curve with a large enough effect; inconclusive = small, poorly fitted or top-dose-only effect, or another doubt; inactive = no such curve, though single readings can be large or run the other way; note: series mostly up to about 120 µM
# Target sequence (P11473 whole entry, looked up): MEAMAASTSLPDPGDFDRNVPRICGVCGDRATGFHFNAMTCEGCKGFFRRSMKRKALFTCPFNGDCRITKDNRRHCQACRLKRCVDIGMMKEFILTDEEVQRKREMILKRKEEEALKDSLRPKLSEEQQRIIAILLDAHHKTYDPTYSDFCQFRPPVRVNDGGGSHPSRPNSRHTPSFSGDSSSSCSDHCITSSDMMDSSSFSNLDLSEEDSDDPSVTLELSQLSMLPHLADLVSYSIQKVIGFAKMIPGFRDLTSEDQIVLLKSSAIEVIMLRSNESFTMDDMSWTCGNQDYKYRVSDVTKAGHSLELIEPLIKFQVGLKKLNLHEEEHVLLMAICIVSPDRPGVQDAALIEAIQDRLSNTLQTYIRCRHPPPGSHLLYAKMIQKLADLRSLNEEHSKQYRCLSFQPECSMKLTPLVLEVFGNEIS
#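 Fluorescence polarization assay measuring small-molecule disruption of VDR binding to the coregulator peptide SRC2-3. Compounds were pin-transferred (23 nl) into the reagent mix and incubated 2 h at room temperature before reading.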
# Numbers without * were called inactive; ? = inconclusive; & = joins results of further samples. % is set by controls: 0 for no effect and ±100 for the full control effect; potency is the fitted concentration of half-maximal effect.
VDR inhibitor	Compound
2%	CC(C)(C)c1ccc(-c2noc(CCC(=O)Nc3cccc(Cl)c3)n2)cc1
-4%	COc1ccccc1CNC(=O)c1oc2c(c1C)-c1nn(Cc3ccc(Cl)cc3)cc1CC2
-4%	Cc1ccc(NC(=O)COC(=O)CCc2ccc(S(=O)(=O)N3CCOCC3)cc2)c(C)c1
-16%	CCCNC(=O)c1ccc(N2CCC3(CC2)CC(c2cccc(Br)c2)=NO3)c(NC(=O)c2c(Cl)cccc2Cl)c1
-9%	CCOC(=O)N1CC=C2C(C#N)=C(N)C(C#N)(C#N)[C@H](c3cccs3)C2C1 (stereo not given in full)
2%	Cc1ccc(OCC(=O)Nc2ccc(C(N)=O)cc2)cc1
4%	CCCNC(=O)CN1C(=O)COc2ccc(S(=O)(=O)N3CC(C)CC(C)C3)cc21 (stereo not given)
2%	Fc1ccc(CSc2nnc(-c3cccs3)o2)cc1
3%	CCc1ccccc1NC(=O)CSc1nc2ncccc2o1
11%	O=C(c1ccc(N2CCCC2=O)cc1)N1CCN(c2ccccc2)CC1

# Additional compounds
VDR inhibitor	Compound
-12%&14%	CCN(CCCNC(=O)Cn1ncc2c([nH]c3ccc(C)cc32)c1=O)Cc1ccccc1
7%	C=CCN(CC=C)c1nc2ccccc2nc1C(C#N)C(=O)OC(C)C (stereo not given)
-4%	CCCCN=C(NNc1ccc(Br)cc1)C(=O)OCC
24%	OCCC1CN(Cc2ccccc2OC2CCCC2)CCN1Cc1ccsc1 (stereo not given)
8%	Nc1ccc2c(c1)Cc1c(F)cccc1-2
-11%	COc1ccc(N2CCN(C(=O)Cc3ccc(S(=O)(=O)N4CCOCC4)s3)CC2)cc1
1%	O=C(NCC1CCCO1)C1CCCN(S(=O)(=O)c2cccc(C(F)(F)F)c2)C1 (stereo not given)
-5%	CCOC(=O)c1ccc(NC(=O)CN2C(=O)C3C4C=CC(C4)C3C2=O)cc1 (stereo not given)
-14%	CCn1c(CNC(=O)c2ccccc2F)nnc1SCC(=O)NC1CCCCC1C (stereo not given)
-1%	COc1ccc(C(=O)COC(=O)CSCc2c(C)noc2C)cc1OC

# Carrying on.
VDR inhibitor	Compound
?	Cc1ccc2c(c1)C(c1ccncc1)=NNC(c1ccccc1)=N2
-6%	CCCCn1c(=O)[nH]c(=O)c2c1nc(COC(=O)c1c(C)noc1C)n2CCC
-2%	CCCn1cnc2c(SCc3ccccc3F)nc(N)nc21
-9%	CCOc1[nH]n(-c2ccc(Cl)cc2)c(=O)c1C=Nc1ccc(OC)cc1
2%	CCCN(CCC)S(=O)(=O)c1ccc(C(=O)Nc2ccc(S(=O)(=O)Nc3nnc(CC)s3)cc2)cc1
3%	COc1ccc(C)cc1NC(=O)c1ccccc1N(C)S(=O)(=O)c1ccccc1
8%	CC(=O)N1CCN(S(=O)(=O)c2cccc(C(=O)Nc3ccccc3N3CCCC3)c2)CC1
9%	COC(=O)Cn1ncc(N2C3CC(CC(C)(C)C3)C2C)c(Cl)c1=O (stereo not given)
-1%	Cc1ccc(CNC(=O)C(=O)NCC(c2cccs2)S(=O)(=O)c2cccs2)cc1 (stereo not given)
-21%	O=C(CN1C(=O)C2CCCCC2C1=O)NC1CCCc2ccccc21 (stereo not given)

# (next part)
VDR inhibitor	Compound
-1%	COC(=O)N1CCC[C@@]2(CCN(C(=O)NC(C)C)C2)C1
6%	Cc1nn(-c2ccccc2)c(Cl)c1/C=N/Nc1nc2ccccc2n1C
5%	COC(=O)c1ccc2c(c1)NC(=O)C(N1CCCC1)S2 (stereo not given)
-7%	O=C(CN1C(=O)NC2(CCCCC2)C1=O)NNC(=O)C1CC1
18%	CCC(C(=O)O)n1cnc2scc(-c3ccc(C)c(C)c3)c2c1=O (stereo not given)
7%	COc1ccccc1C(C(=O)NC1CCCCC1)N(C(=O)c1csnn1)C1CC1 (stereo not given)
5%	Cc1cc(C)c(C#N)c(SCc2cn3ccccc3n2)n1
8%	O=C(NCCN1CCCC1)C1(S(=O)(=O)c2ccc(Cl)cc2)CC1
-11%	O=C(c1ccc(F)cc1)N1CCN(Cc2ccccc2Br)CC1
-2%	CCOC(=O)c1cc2c(=O)n3ccccc3nc2n(CC2CCCO2)c1=NC(=O)/C=C/c1ccccc1 (stereo not given)

# The listing continues:
VDR inhibitor	Compound
6%	CCC(C)(C)NC(=O)C(c1ccc(OC)cc1)N(Cc1cccs1)C(=O)CCC(=O)Nc1cc(C)on1 (stereo not given)
?	CCC(=O)Nc1nonc1-c1nc2ccccc2n1N(C(=O)CC)C(=O)CC
?	COc1cccc2oc3cc(C#CC4(O)CCCCC4)ccc3c(=O)c12
-20%	CCCN(CCC)CCNC(=O)CN1C(=O)COc2ccc(S(=O)(=O)N3CCC(C)CC3)cc21
-5%	CC(C)CNC(=O)c1cccc(NC(=O)COc2ccc([N+](=O)[O-])cc2)c1
3%	COc1cccc(NC(=O)Cc2nnc(SCC(=O)NC3=NCCS3)n2C)c1
-8%	NNC(=S)NC1CCCCC1
0%	CCN(CC(=O)Nc1c(F)cccc1F)C(=O)c1cc(-c2cccs2)nn1-c1ccccc1
3%	O=C1c2ccccc2C(=O)N1c1ccc(S(=O)(=O)N2CCN(c3ccccc3)CC2)cc1
7%	Cc1cccc2cc(C(c3nnnn3CC3CCCO3)N3CCCc4ccccc43)c(=O)[nH]c12 (stereo not given)

# Reprinted from the part before: two entries, followed by the next part.
VDR inhibitor	Compound
3%	O=C1c2ccccc2C(=O)N1c1ccc(S(=O)(=O)N2CCN(c3ccccc3)CC2)cc1
7%	Cc1cccc2cc(C(c3nnnn3CC3CCCO3)N3CCCc4ccccc43)c(=O)[nH]c12 (stereo not given)
-6%	CN(Cc1ccccc1)C(=O)COC(=O)CCN1C(=O)C2CC=CCC2C1=O (stereo not given)
13%	Cc1cccc2cc(COC(=O)c3cccnc3)c(=O)[nH]c12
11%	COc1cc(NC(=O)CN2C(=O)c3ccccc3Sc3ccc(C(=O)N4CCCC4)cc32)cc(OC)c1
8%	O=C(CN1C(=O)c2ccccc2C1=O)Nc1ccccc1F
-12%	O=C(N/N=C/c1cccc(F)c1)c1c(O)c2ccccc2[nH]c1=O
6%	Cc1cccc(/C=C2/SC(=O)N(Cc3ccccc3)C2=O)n1
-24%	O=C(CCCn1cc([N+](=O)[O-])cn1)N1CCCCC1
-7%	O=C(CN1C(=O)c2ccccc2S1(=O)=O)N1CCCCC1
-7%	COc1ccc(N(C(C)C(=O)N(C)Cc2ccccc2)S(C)(=O)=O)cc1 (stereo not given)
-4%	COc1ccc(-n2c(=O)c3c4c(sc3n(Cc3c(F)cccc3Cl)c2=O)CN(C(C)=O)CC4)cc1OC

# Pulled by structure from the list above (4):
VDR inhibitor	Compound
-24%	O=C(CCCn1cc([N+](=O)[O-])cn1)N1CCCCC1
8%	O=C(CN1C(=O)c2ccccc2C1=O)Nc1ccccc1F
-7%	COc1ccc(N(C(C)C(=O)N(C)Cc2ccccc2)S(C)(=O)=O)cc1 (stereo not given)
-12%	O=C(N/N=C/c1cccc(F)c1)c1c(O)c2ccccc2[nH]c1=O

# Remaining list, next part.
VDR inhibitor	Compound
-16%	O=C(NC1(C(F)(F)F)N=C2SCCN2C1=O)c1ccccc1F (stereo not given)
2%	COc1ccc(OC)c(/C=C/c2nc3ccccc3c(=O)n2-c2ccc(F)c(Cl)c2)c1
0%	COc1ccccc1NS(=O)(=O)c1ccc2c(c1)NC(=O)CC(=O)N2
8%	CCCn1c(CNC(=O)c2cccs2)nc2ccccc21
9%	CCOc1ccc(OCC)c(NC(=O)CSCC(=O)O)c1
-2%	Cc1ccc(O)c(-c2cc(-c3ccccc3F)[nH]n2)c1
8%	CCOc1ccc(/C=N/OCC(=O)Nc2cc(C)on2)cc1
-9%	CC(C)N(C)S(=O)(=O)c1ccc(NC(=O)CSC(=S)N2CCCC2)cc1
20%	O=C(CSc1ncn[nH]1)N1N=C2/C(=C\c3ccco3)CCCC2C1c1ccco1 (stereo not given)
20µM*	COc1ccc2c(c1)Cc1sc(NC(=O)c3cccc(C)c3)nc1-2

# Following part.
VDR inhibitor	Compound
-12%	O=C(Nc1ccc(-c2cccc(F)c2)cc1)C1CCCN(Cc2ccccn2)C1 (stereo not given)
8%	COC(=O)c1ccc(NC(=O)C2CCCN2S(=O)(=O)c2ccc(F)cc2)cc1 (stereo not given)
-2%	Cc1occc1-c1nnc(SCC(=O)Nc2ccc(F)cc2)n1C
-15%	COc1cc(Br)ccc1NC(=O)c1ccccc1-c1ccccc1C(=O)O
-13%	COc1ccc(CCN(Cc2cccs2)S(=O)(=O)c2ccc(S(=O)(=O)N3CCCCCC3)cc2)cc1OC
-24%	COc1ccc(OCC(=O)Nc2ccccc2N2CCN(C)CC2)cc1
18%	COCCN(C(=O)CCC(=O)Nc1cccnc1)C(C(=O)NC1CCCCC1)c1ccccc1 (stereo not given)
0%	COc1ccc(CNC(=O)/C=C/c2cc3c(cc2Br)OCO3)cc1
-1%	Cc1ccc(-c2nc3ccccn3c2Nc2ccc3c(c2)OCCO3)o1
-15%	CCOC(=O)C1CCCN(CC(=O)Nc2cc(C)cc(C)c2)C1 (stereo not given)

# In the list so far, these contain a COOH group:
VDR inhibitor	Compound
18%	CCC(C(=O)O)n1cnc2scc(-c3ccc(C)c(C)c3)c2c1=O (stereo not given)
9%	CCOc1ccc(OCC)c(NC(=O)CSCC(=O)O)c1
-15%	COc1cc(Br)ccc1NC(=O)c1ccccc1-c1ccccc1C(=O)O

# Following part
VDR inhibitor	Compound
-12%	COC(=O)c1c(-c2ccccc2)csc1NC(=O)C1CC=CCC1C(=O)O (stereo not given)
0%	CCOc1ccc(NCc2cccn2-c2nnc(N3CCC(C(=O)NCCc4ccc(OCC)c(OCC)c4)CC3)s2)cc1
4%	O=C1CCCC(c2ccccc2)N1 (stereo not given)
-15%	CCOC(=O)c1sc2nc(CC(=O)OC)nc(NCc3ccco3)c2c1C
-19%	CN1CCN(/C(=N\O)c2nonc2N)CC1
-22%	CCN(CC)S(=O)(=O)c1cc(NS(=O)(=O)c2ccc(Cl)c(C(=O)O)c2)ccc1C
12%	NC(Cc1c[nH]c2ccc(OCc3ccccc3)cc12)C(=O)O (stereo not given)
-10%	O=C(c1ccccc1Cl)N1CCC(n2cccc2)CC1
8%	COCCn1c(SCC(=O)Nc2ccccc2OC)nc2ccccc2c1=O
-2%	O=C(NCc1ccncc1)c1cccc(Cn2cc(Br)cn2)c1

# Next section
VDR inhibitor	Compound
12%	COc1cccc(N(C(=O)Cn2nnc(-c3ccc(C)o3)n2)C(C(=O)NC2CCCC2)c2ccncc2)c1 (stereo not given)
-13%	Cc1nnc(SCC(=O)Nc2cc(Cl)ccc2Cl)n1CC1CCCO1 (stereo not given)
7%	COC(=O)C1=C(C)N(Cc2ccccc2)C(=NCC(C)C)N[C@H]1c1cccc(C(F)(F)F)c1
?	O=C(c1ccco1)N1CCC2(CC1)CCN(C(c1ccccc1)c1ccccc1)CC2
14%	CCN(CC)S(=O)(=O)c1ccc2[nH]c(=O)cc(C(=O)Nc3cccc(C(C)=O)c3)c2c1
0%	CCCN(CCC)CCNC(=O)C1CCCN(S(=O)(=O)c2ccc3c(c2)oc(=O)n3C)C1 (stereo not given)
13%	COCc1cc(C)nc2c1C(=O)NC(c1ccc(C)cc1)N2Cc1ccccc1 (stereo not given)
11%	O=C(NCCc1ccc(Cl)cc1)c1cc(-c2ccc(Cl)cc2)n[nH]1
-13%	COC(=O)C1=C(C)NC2=C(C(=O)c3ccccc32)C1c1ccc(-c2ccc(C(=O)O)cc2)o1 (stereo not given)
-4%	CCn1cc(S(=O)(=O)CC(=O)Nc2ccc3c(c2)OCO3)c2ccccc21

# Remaining list, next part.
VDR inhibitor	Compound
-8%	O=c1c2cc3c(cc2n(Cc2cccc(F)c2)c(=O)n1Cc1nc(-c2ccccc2)no1)OCO3
-3%	CCc1nccn1S(=O)(=O)c1cc(Br)ccc1Br
-12%	O=C(Nc1ccc(N2CCOCC2)c(S(=O)(=O)Nc2ccccc2Cl)c1)c1ccc(F)cc1
-24%	Cc1cccc(-n2ncc3c(N4CCC5(CC4)OCCO5)ncnc32)c1
8%	Clc1ccc(C2CSc3c4ncnc-4ncn32)cc1 (stereo not given)
24%	Cc1ccc(CNCc2ccccc2)s1
10%	CC(=O)Nc1ccc(SCC(=O)N(C)C2CCS(=O)(=O)C2)cc1 (stereo not given)
-11%	NC(=O)CSc1nnc(COc2ccccc2)n1Cc1ccco1
0%	CSCCC(NC(=O)c1cccc([N+](=O)[O-])c1)C(=O)O (stereo not given)
6%	N#Cc1ccc(-c2csc(NNC(=O)c3ccccc3)n2)cc1

# Next entries follow.
VDR inhibitor	Compound
12%	Cc1ccc(S(=O)(=O)n2ccc3c(OCCOCCNCc4ccc(F)cc4)cccc32)cc1
-11%	O=Cc1ccc2c(c1)CCN2Cc1ccccc1
-5%	CCN1CCN(c2cc(SC(C)C)nc(-c3ccc(OC)cc3)n2)CC1
-3%	CCCCSc1nc(NCc2ccco2)c2c3c(sc2n1)COC(C)(C)C3
4%	O=C(O)CCC(CNS(=O)(=O)c1ccccc1)C(F)(F)F (stereo not given)

# Some of the entries so far, with tabs:
canonical_smiles	VDR inhibitor
CC(C)CNC(=O)c1cccc(NC(=O)COc2ccc([N+](=O)[O-])cc2)c1	-5%
CCOC(=O)C1CCCN(CC(=O)Nc2cc(C)cc(C)c2)C1 (stereo not given)	-15%
CCCN(CCC)CCNC(=O)CN1C(=O)COc2ccc(S(=O)(=O)N3CCC(C)CC3)cc21	-20%
CCc1nccn1S(=O)(=O)c1cc(Br)ccc1Br	-3%

# Source: PubChem

# An excerpt; the hit share may differ from the screen's.
